High-throughput results deposited in PubChem by National Center for Advancing Translational Sciences (NCATS).
2A StopGo = lowers the luciferase signal of an FMDV 2A StopGo reporter; hit rate 1.2% among 410,000; human cells with a luciferase reporter of 2A StopGo recoding; control for the full effect not named in the record; Potency, µM (doses to about 57.9 µM), for inactives: at the highest dose signal change, negative = less light; AID 1159524; active = well fitted falling curve with a large enough effect; inconclusive = small, poorly fitted or top-dose-only effect; inactive = no such curve, though single readings can be large or run the other way; tested in HEK293T cells; note: % is set by controls: 0 for no effect and ±100 for the full control effect; nearly all actives have a fitted effect of over 45% in size; luciferase light after 4 h
RE007 growth inh = less growth of the S. pombe RE007 Vpr strain. AID 651644. Potency, µM (titrated, usually from 92.2 µM), without a hit: at the highest dose activity change, negative = less growth. S. pombe RE007 Vpr strain, BacTiter-Glo ATP luminescence, 24 h; control for the full effect not named in the record. hit rate 0.21% among 360,000; active = well fitted falling curve with a large enough effect; inconclusive = small, poorly fitted or top-dose-only effect; inactive = no such curve, though single readings can be large or run the other way;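 note: % is set by controls: 0 for no effect and ±100 for the full control effect; nearly all actives have a fitted effect of over 50% in size; the assay follows cell death caused by Vpr and the record does not say whether a fall means rescue or toxicity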
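Fission yeast strain RE007, carrying one chromosomally integrated HIV-1 vpr copy, was seeded at OD 0.01 in PMG+AL medium with 23 nL pinned compound. After 24 h at 30 °C and 99% humidity, viability was read by BacTiter-Glo luminescence.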
SARS PLpro yeast = blocks SARS-CoV papain-like protease in a yeast assay; S. cerevisiae expressing SARS-CoV PLpro, growth rescue; control for the full effect not named in the record; Potency, µM (highest dose often 32.9 µM), for the others: at the top dose activity, positive = growth rescue; hit rate 0.19% among 330,000; active means well fitted rising curve with a large enough effect; inconclusive means small, poorly fitted or top-dose-only effect; inactive means no such curve, though single readings can be large or run the other way; note: 0% is about no effect; nearly all actives have a fitted effect of over 55% in size; growth read by luminescence after 48 h
LASV entry inh = blocks Lassa virus binding to or entry into cells | Lassa virus pseudotype entry inhibition, cell reporter; control for the full effect not named in the record | Potency, µM (highest dose often 37.9 µM), for the others: at the top dose activity change, negative = inhibition, usual class: inhibitors | hit rate 1.2% among 300,000; active means well fitted inhibition curve with a large enough effect; inconclusive means small, poorly fitted or top-dose-only effect, or effect the other way; inactive means flat fitted curve, though single readings scatter; tested in HEK293 cells; note: % is set by controls: 0 for no effect and ±100 for the full control effect; nearly all actives have a fitted effect of over 50% in size; luciferase read-out
Cruzain Triton = blocks cruzain activity in presence of Triton detergent; P25779; purified cruzain, Z-FR-AMC fluorescence, 0.01% Triton; Potency, µM, for the others: max response, negative = inhibition, usual class: inhibitors; hit rate 0.43% among 200,000;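 note: plate controls were neutral wells for no effect and buffer without enzyme for full effect; nearly all actives have a fitted effect of over 40% in size; top concentration of the series not given in the record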
Target sequence (P25779 123-467 limits assumed): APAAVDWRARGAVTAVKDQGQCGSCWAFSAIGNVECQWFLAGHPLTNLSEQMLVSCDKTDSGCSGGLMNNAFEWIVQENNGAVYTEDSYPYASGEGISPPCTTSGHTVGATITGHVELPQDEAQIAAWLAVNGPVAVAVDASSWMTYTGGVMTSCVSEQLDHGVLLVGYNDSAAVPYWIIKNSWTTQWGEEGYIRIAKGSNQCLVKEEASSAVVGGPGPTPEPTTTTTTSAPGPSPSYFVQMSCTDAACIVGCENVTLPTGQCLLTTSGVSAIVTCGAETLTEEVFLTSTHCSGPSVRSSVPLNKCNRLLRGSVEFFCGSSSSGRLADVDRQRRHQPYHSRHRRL
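Enzyme 1.5 nM, Z-FR-AMC 2 uM, NaOAc 100 mM pH 5.5, DTT 5 mM, Triton X-100 0.01%; 15 min RT compound preincubation; kinetic ex360/em450, 60 s delta.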
Cruzain inh noDet = cruzain (T. cruzi) inhibition without detergent | Potency, µM, for the others: max response, negative = inhibition, actives largely listed as inhibitors | P25779 | purified cruzain, Z-FR-AMC fluorescence, no detergent | hit rate 2.3% among 200,000;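 note: plate controls were enzyme without inhibitor for no effect and buffer without enzyme for full effect; nearly all actives have a fitted effect of over 40% in size; top concentration of the series not given in the record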
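Purified cruzain at 1.5 nM, pre-incubated 15 min with compound at room temperature in 100 mM sodium acetate pH 5.5, 5 mM DTT, 0.00005% Triton X-100. Reaction started with 2 uM Z-FR-AMC; AMC fluorescence increase over 60 s gives rate.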
MARV entry inh = blocks Marburg virus binding to or entry into cells | Potency, µM (series often up to 37.8 µM), for inactives: at the top dose activity change, negative = inhibition, usual class: inhibitors | hit rate 1.8% among 300,000 | Marburg virus pseudotyped entry inhibition, cell reporter; control for the full effect not named in the record; about a third of the inactives were read at about 46 µM; active = well fitted inhibition curve with a large enough effect; inconclusive = small, poorly fitted or top-dose-only effect, or effect the other way; inactive = flat fitted curve, though single readings scatter; tested in HEK293 cells; about a fifth of its hits are not listed in these tables; note: % is set by controls: 0 for no effect and ±100 for the full control effect; luciferase read-out
NS1 inh = blocks influenza NS1 protein function; hit rate 0.4% among 270,000; S. cerevisiae slowed by influenza A NS1, growth recovery by OD600; Potency, µM (titrated, usually from 46.1 µM), for the others: top-dose activity, positive = more growth; AID 2326; active means well fitted rising curve with a large enough effect; inconclusive means small, poorly fitted or top-dose-only effect; inactive means no such curve, though single readings can be large or run the other way; note: nearly all actives have a fitted effect of over 50% in size
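S. cerevisiae expressing influenza A NS1, grown in glucose, washed, then diluted 1:100 into pH 6.0 -URA galactose medium with 23 nl compound. Growth recovery read as OD600; NS1-free strain serves as control.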
* hit, by the source's call; ? = inconclusive; · = not tested or not shown; [ ] = dose if it differs, or a comment. Unless noted, calls come from the whole dose curve; as a rule, active = well fitted curve in the direction sought with a large enough effect; inconclusive = small, poorly fitted or top-dose-only effect, or another doubt; inactive = no such curve, though single readings can be large; an effect the other way counts as inactive or inconclusive. Potency is the fitted concentration of half-maximal effect.

1. CC(C)c1ccc(-c2nn(-c3ccccc3)cc2C2C(C#N)=C(N)OC3=C2C(=O)CC(C)(C)C3)cc1 (stereo not given)
2. Cc1ccnc(NC(=O)CSc2cc(=O)n(C)c3ccccc23)c1
3. CCOc1cc2c3c(c1)C1(OCCO1)C(=O)N3C(C)(C)CC2C (stereo not given)
4. CCOC(=O)c1ccc(N2CC(O)=C(c3nc4ccccc4c(=O)[nH]3)C2=N)cc1
5. COc1ccc(N2CC(C(=O)OCC(=O)c3cccc(OC)c3)CC2=O)cc1 (stereo not given)
6. COc1ccc(-c2nn(-c3ccccc3C)cc2CNCCc2cnc[nH]2)cc1F
7. Nc1nnc(SCc2nc3scc(-c4ccccc4)c3c(=O)[nH]2)s1
8. Cc1ccc(NC(=O)Cn2ncc3c([nH]c4ccccc43)c2=O)cc1Cl
9. CCC(CC)C(=O)NCc1nc2cccnc2n1Cc1ccc(F)cc1
10. CCn1cc(CN2CCc3c([nH]c4ccccc34)C2c2cccc(OC)c2OC)c(C)n1 (stereo not given)
assay / compound | 1 | 2 | 3 | 4 | 5 | 6 | 7 | 8 | 9 | 10
2A StopGo | -6% | 15% | 0% | 10% | 14% | -6% | ? | -10% | -4% | -11%
RE007 growth inh | -9% | 11% | 1% | -1% | 8% | -15% | -4% | 3% | · | ?
SARS PLpro yeast | 1% | 2% | 5% | -1% | 1% | -2% | 1% | 3% | · | -2%
LASV entry inh | -24% | -1% | -8% | 1% | 6% | 8%[46.1 µM] | · | · | 1%[46.1 µM] | -9%
Cruzain Triton | -9.0% | 2.0% | -5.7% | -2.1% | 0.9% | · | · | · | -0.1% | ·
Cruzain inh noDet | -13% | 9% | 12% | 22% | -1% | · | · | · | 10% | ·
MARV entry inh | -2%[46.1 µM] | ? | -19% | 5% | -5% | ? | · | · | · | ?
NS1 inh | 13% | -2% | -4% | 19% | -7% | 1% | ? | -12% | · | 2%

Complete entries from above. Screens in order: 2A StopGo | RE007 growth inh | SARS PLpro yeast | LASV entry inh | Cruzain Triton | Cruzain inh noDet | MARV entry inh | NS1 inh
Cc1ccc(NC(=O)Cn2ncc3c([nH]c4ccccc43)c2=O)cc1Cl across the screens: -10% | 3% | 3% | · | · | · | · | -12%
Cc1ccnc(NC(=O)CSc2cc(=O)n(C)c3ccccc23)c1 across the screens: 15% | 11% | 2% | -1% | 2.0% | 9% | ? | -2%
Nc1nnc(SCc2nc3scc(-c4ccccc4)c3c(=O)[nH]2)s1 across the screens: ? | -4% | 1% | · | · | · | · | ?
COc1ccc(-c2nn(-c3ccccc3C)cc2CNCCc2cnc[nH]2)cc1F across the screens: -6% | -15% | -2% | 8%[46.1 µM] | · | · | ? | 1%
COc1ccc(N2CC(C(=O)OCC(=O)c3cccc(OC)c3)CC2=O)cc1 (stereo not given) across the screens: 14% | 8% | 1% | 6% | 0.9% | -1% | -5% | -7%

Structures above that have an aryl thioether with sulfur outside any ring, in the order listed:
2. Cc1ccnc(NC(=O)CSc2cc(=O)n(C)c3ccccc23)c1
7. Nc1nnc(SCc2nc3scc(-c4ccccc4)c3c(=O)[nH]2)s1
assay / compound | 2 | 7
2A StopGo | 15% | ?
RE007 growth inh | 11% | -4%
SARS PLpro yeast | 2% | 1%
LASV entry inh | -1% | ·
Cruzain Triton | 2.0% | ·
Cruzain inh noDet | 9% | ·
MARV entry inh | ? | ·
NS1 inh | -2% | ?

New compounds follow:
11. CCn1nc(NS(=O)(=O)c2ccc([N+](=O)[O-])cc2)c2cc3ccc(C)cc3nc21
12. Cc1csc(SCC(=O)NCc2ccccc2)n1
13. Cc1ccc(S(=O)(=O)N(C)Cc2ccc(C(=O)N/N=C/c3ccc(OC(F)F)cc3OC(F)F)cc2)cc1
14. O=c1c2ccccc2nc2n1C(CSCc1ccc(Cl)cc1Cl)CS2 (stereo not given)
15. CC(Sc1ccc2nnc(-c3ccc(F)cc3)n2n1)C(=O)O (stereo not given)
16. CC(C)c1cc(C(=O)N2CCN(C(c3ccccc3)c3ccccc3)CC2)no1
17. O=C(Nc1ccc(Br)cc1)c1cccc(S(=O)(=O)Nc2cnc3ccccc3c2)c1
18. COc1cccc(CN2CCNC(=O)C2CC(=O)N(C)Cc2nc(C)cs2)c1OC (stereo not given)
19. O=C(NC(Cc1ccccc1)C(=O)N1CCN(S(=O)(=O)c2ccccc2)CC1)c1ccccc1 (stereo not given)
20. Cc1ccc(/C=C2\C(=O)Nc3ccccc32)o1
assay / compound | 11 | 12 | 13 | 14 | 15 | 16 | 17 | 18 | 19 | 20
2A StopGo | 32%[activator] | 14% | 6.3µM* | 18µM* | -8% | -11% | -22% | -14% | -24% | 32%[activator]
RE007 growth inh | 4% | -12% | -2% | 1% | -1% | 1% | -8% | 3% | -15% | -28%
SARS PLpro yeast | 5% | 2% | -2% | 3% | -2% | -48% | -31% | -10% | · | -114%
LASV entry inh | · | 0%[46.1 µM] | ? | -26% | · | ? | ? | -1% | 21%[46.1 µM] | -8%
Cruzain Triton | · | · | -4.0% | -0.4% | · | -4.4% | -11% | · | · | -12%
Cruzain inh noDet | · | · | ? | 6% | · | 10% | -28% | · | · | -8%
MARV entry inh | · | 3%[46.1 µM] | ? | ? | · | -30% | 2.8µM* | ? | ? | 20%
NS1 inh | 4% | · | ? | 2% | 9% | -66% | 24% | 16% | · | -34%

Nothing new here: entries from further up.
18. COc1cccc(CN2CCNC(=O)C2CC(=O)N(C)Cc2nc(C)cs2)c1OC (stereo not given)
19. O=C(NC(Cc1ccccc1)C(=O)N1CCN(S(=O)(=O)c2ccccc2)CC1)c1ccccc1 (stereo not given)
20. Cc1ccc(/C=C2\C(=O)Nc3ccccc32)o1
assay / compound | 18 | 19 | 20
2A StopGo | -14% | -24% | 32%[activator]
RE007 growth inh | 3% | -15% | -28%
SARS PLpro yeast | -10% | · | -114%
LASV entry inh | -1% | 21%[46.1 µM] | -8%
Cruzain Triton | · | · | -12%
Cruzain inh noDet | · | · | -8%
MARV entry inh | ? | ? | 20%
NS1 inh | 16% | · | -34%

Continued.
21. COc1ccc(CCNC(=O)CCCC(=O)n2nc(C)c3ccccc32)cc1OC
22. COc1ccc(CNCc2cccn2C)cc1
23. Cc1cc(C)cc(NC(=O)CCN2CCOCC2)c1
24. Cc1cc(NC(=O)C(C)SCC(=O)Nc2ccccc2N2CCCCC2)no1 (stereo not given)
25. Cc1ccc(OCC(=O)Nc2ccc3oc(=O)ccc3c2)c(C)c1
26. O=C(CCl)c1ccc2[nH]c(=O)oc2c1
27. Cc1ccccc1OCc1n[nH]c(=S)n1-c1cccc(Cl)c1
28. Cc1ccc(NCc2nnc(SCC(=O)N3CCc4ccccc43)n2C)cc1
29. COc1ccc(CNc2nc(NCc3ccc(OC)cc3)n(C(=O)c3ccccc3[N+](=O)[O-])n2)cc1
30. COc1ccc(OC)c(C2=NOC(C(=O)Nc3ccccc3SC)C2)c1 (stereo not given)
31. CCN(c1ccccc1)S(=O)(=O)c1ccc2[nH]c(=O)[nH]c2c1
assay / compound | 21 | 22 | 23 | 24 | 25 | 26 | 27 | 28 | 29 | 30 | 31
2A StopGo | -21% | -5% | 11% | 0% | ? | ? | 2% | 1% | 21% | 15% | -8%
RE007 growth inh | 10% | -15% | -1% | -6% | -15% | -6% | -8% | -1% | -19% | 17% | -6%
SARS PLpro yeast | -5% | 0% | 2% | 8% | -7% | -1% | 1% | 4% | -5% | -6% | -1%
LASV entry inh | 19%[46.1 µM] | · | · | 8%[46.1 µM] | · | · | · | -10% | 4.1µM* | -6% | 11%
Cruzain Triton | · | · | · | · | · | · | · | 7.1% | 5.7% | -1.4% | ·
Cruzain inh noDet | · | · | · | · | · | · | · | 20% | ? | -5% | ·
MARV entry inh | -20%[46.1 µM] | · | · | -30% | 15%[46.1 µM] | · | · | 0% | 5% | 1% | -4%[46.1 µM]
NS1 inh | -15% | 14% | 17% | · | -1% | 3% | ? | -5% | ? | -8% | 0%
